# Compound activity deposited in PubChem by Broad Institute.
# DUX4 inh: inhibitors of DUX4-driven ZSCAN4 reporter expression, primary screen, 293T cells, Gaussia and Italica luciferase; 293T-iDUX4 ZSCAN4-Gaussia luciferase reporter, 24 h; hits give low values; activity change, negative = inhibition, % (no concentration beside the values); 37,000 tested, 0.8% active; AID 1224904, 2016;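 active means -10% or lower and over 25 points stronger than a control reporter; inconclusive means -10% or lower with a smaller gap; inactive means above -10%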;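 further: 0% = median of neutral control wells and -100% = median of positive control wells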
# DUX4 inh difference: also measured in DUX4 inh; calls as there; Gaussia minus Italica difference, %; measured here: selective DUX4 reporter inhibition;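 worked out from the two reporters; negative = selective loss of the DUX4 reporter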
# DUX4 inh control: second read-out of DUX4 inh, no call of its own (marks repeat the call); activity change, negative = inhibition, %; measured here: Italica tet-on control reporter;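 0 = neutral control and -100 = positive control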
# * marks the source's active call; other numbers are inactive results; ? = inconclusive; nt = no result given. Not all compounds are listed; count on the stated rates, not on these rows.
item	molecule	DUX4 inh	DUX4 inh difference	DUX4 inh control
1	COc1cccc(S(=O)(=O)N2CC[C@@H]3[C@@H](CO)Nc4ccc(-c5ccccc5OC)cc4[C@@H]32)c1	?	nt	nt
2	CN(C)C(=O)C[C@@H]1CC[C@@H]2[C@@H](COc3ccc(NC(=O)C4CCCCC4)cc3C(=O)N2C)O1	-4.0	0.3	-4.2
3	COCC#Cc1ccc([C@H]2[C@H]3CN(C(=O)C4CCCCC4)CC(=O)N3[C@H]2CO)cc1	6.6	2.7	3.9
4	O=C(Nc1cccc(Cl)c1)N[C@@H]1CC[C@@H](CCn2cc(Cc3ccccc3)nn2)O[C@H]1CO	-5.7	-0.1	-5.6
5	O=C(C[C@@H]1CC[C@@H](NC(=O)c2ccccn2)[C@H](CO)O1)NCc1cc(F)cc(F)c1	-1.1	3.1	-4.2
6	CCC(=O)N1[C@H](CN(CC)C(=O)c2ccc(F)cc2)[C@@H](c2ccccc2)[C@@H]1CO	1.5	1.5	0.1
7	Cc1nn(C)cc1NC(=O)C[C@@H]1CC[C@H]2[C@@H](COc3ccc(NC(=O)c4cccc(F)c4)cc3C(=O)N2C)O1	-0.2	-3.7	3.5
8	O=C(c1cccc(F)c1)N1CC(=O)N2[C@H](CO)[C@@H](c3ccc(-c4ccccc4)cc3)[C@@H]2C1	-3.7	-9.7	6.0
9	CO[C@H]1CC[C@H]2CCN(C)C(=O)[C@H](C)[C@H](OC)CN(C)C(=O)c3cc(C#N)ccc3OC[C@H]1O2	-1.2	-2.8	1.6
10	COc1ccc(C(=O)N2C[C@@H]3[C@H](c4ccccc42)[C@H](CO)N3C(=O)Cc2ccccn2)cc1	-4.5	-0.2	-4.3
11	COCC(=O)N(C[C@@H]1[C@@H](c2ccccc2)[C@H](CO)N1C(=O)NC(C)C)C(C)C	-3.3	-2.3	-1.0
12	COc1ccc(CNC(=O)N(C)C[C@H]2OCc3ccccc3-c3ccccc3C(=O)N([C@@H](C)CO)C[C@H]2C)cc1	9.4	12.6	-3.2

# Brought forward from above: 4 compounds, followed by the next part.
item	molecule	DUX4 inh	DUX4 inh difference	DUX4 inh control
9	CO[C@H]1CC[C@H]2CCN(C)C(=O)[C@H](C)[C@H](OC)CN(C)C(=O)c3cc(C#N)ccc3OC[C@H]1O2	-1.2	-2.8	1.6
10	COc1ccc(C(=O)N2C[C@@H]3[C@H](c4ccccc42)[C@H](CO)N3C(=O)Cc2ccccn2)cc1	-4.5	-0.2	-4.3
11	COCC(=O)N(C[C@@H]1[C@@H](c2ccccc2)[C@H](CO)N1C(=O)NC(C)C)C(C)C	-3.3	-2.3	-1.0
12	COc1ccc(CNC(=O)N(C)C[C@H]2OCc3ccccc3-c3ccccc3C(=O)N([C@@H](C)CO)C[C@H]2C)cc1	9.4	12.6	-3.2
13	C[C@@H]1CN([C@H](C)CO)S(=O)(=O)c2ccc(-c3ccccc3F)cc2O[C@H]1CN(C)Cc1cncnc1	0.0	0.5	-0.5
14	CS(=O)(=O)N1CC(=O)N2[C@H](C1)[C@H](c1ccc(C#CC3CCCC3)cc1)[C@@H]2CO	8.2	-0.8	9.0
15	COc1ccccc1CNC(=O)C[C@@H]1C[C@@H]2c3cc(NC(=O)NC4CCCC4)ccc3O[C@@H]2[C@H](CO)O1	-1.1	-7.3	6.2
16	O=C(C[C@@H]1C[C@H]2c3cc(NS(=O)(=O)c4ccc(F)cc4)ccc3O[C@H]2[C@@H](CO)O1)NC1CCCCC1	-2.2	5.4	-7.6
17	C[C@@H]1CN([C@@H](C)CO)C(=O)c2cc(NC(=O)Nc3cccc4ccccc34)ccc2O[C@H]1CN(C)S(=O)(=O)c1cccs1	3.2	0.8	2.4
18	C[C@@H]1CN([C@@H](C)CO)C(=O)Cc2cc(NC(=O)Cn3cnnn3)ccc2O[C@H]1CN(C)Cc1ccc(Oc2ccccc2)cc1	2.6	-1.1	3.7
19	O=S(=O)(N[C@@H]1CC[C@@H](CCn2cc(-c3cccnc3)nn2)O[C@@H]1CO)c1ccc(Cl)cc1	?	nt	nt
20	CNC[C@H]1Oc2c(NS(=O)(=O)c3ccc(Cl)cc3)cccc2C(=O)N([C@@H](C)CO)C[C@H]1C	0.6	-6.7	7.3
21	C[C@H](CO)N1C[C@H](C)[C@@H](CN(C)S(=O)(=O)c2ccsc2)OCc2ccccc2-c2c(n(C)c3ccccc23)C1=O	8.1	1.9	6.2
22	O=C(C[C@@H]1CC[C@H]2[C@@H](COC[C@H](O)CN2Cc2ccc(Oc3ccccc3)cc2)O1)N1CCOCC1	?	nt	nt
23	COCC(=O)N1C[C@H](C)[C@H](OC)CN(C)C(=O)c2cc(NC(=O)c3ccc(OC)cc3)ccc2OC[C@H]1C	-3.5	-0.5	-3.0
24	CCS(=O)(=O)Nc1ccc2c(c1)C(=O)N(C)[C@H]1CC[C@@H](CC(=O)NCc3ccccc3F)O[C@H]1CO2	-3.6	4.9	-8.5

# Next structures.
item	molecule	DUX4 inh	DUX4 inh difference	DUX4 inh control
25	CCCNC(=O)N1CC2(C1)[C@H](c1ccccc1)[C@@H](CO)N2CC1CCCC1	-7.3	-18.0	10.7
26	C[C@@H]1CN([C@@H](C)CO)C(=O)c2ccccc2-c2ccccc2CO[C@H]1CN(C)Cc1ccc(C(=O)O)cc1	14.0	7.8	6.1
27	CCc1sc(N2[C@@H](C#N)[C@@H](c3ccccc3-c3ccc(F)cc3)[C@@H]2CO)nc1C	?	nt	nt
28	COC(=O)[C@@H]1[C@@H](CO)[C@@H]2Cn3c(cccc3=O)[C@@H]2N1C(=O)C1CCCCC1	-1.0	-10.2	9.2
29	O=C(C[C@@H]1C=C[C@H](NC(=O)CN2CCOCC2)[C@H](CO)O1)NCc1cccc(F)c1	3.3	6.7	-3.5
30	COC(=O)[C@H]1[C@H](CO)[C@H]2Cn3c(ccc(-c4ccncc4)c3=O)[C@H]2N1Cc1ccccc1F	6.9	6.5	0.4
31	CN1CCCCN2[C@H](C1)[C@@H](c1ccc(-c3cccnc3)cc1)[C@@H]2CO	15.2	18.8	-3.6
32	Cc1ccc(CN2CC(=O)N3[C@H](C2)[C@H](c2ccc(Br)cc2)[C@@H]3CO)cc1	8.2	-0.1	8.3
33	COc1ccc2c3c([nH]c2c1)[C@H](CO)N(Cc1ccncc1)CC31CCN(CC2CCOCC2)CC1	14.2	3.3	10.9
34	C[C@H](O)C#Cc1ccc([C@H]2[C@@H](CO)N3CCCCN(C(=O)c4ccncc4)C[C@H]23)cc1	10.4	2.3	8.1
35	CN(C)CC(=O)N[C@H]1C=C[C@H](CC(=O)NCCN2CCCCC2)O[C@@H]1CO	0.2	-2.4	2.7
36	C[C@H]1CN([C@@H](C)CO)C(=O)CCCn2nncc2CO[C@@H]1CN(C)S(=O)(=O)c1ccc(Cl)cc1	-2.5	-0.1	-2.4

# Additional results
item	molecule	DUX4 inh	DUX4 inh difference	DUX4 inh control
37	CO[C@H]1CN(C)C(=O)c2ccc(NC(C)=O)cc2OC[C@@H](C)N(C(=O)c2ccccc2)C[C@H]1C	-2.1	-4.8	2.8
38	N#C[C@@H]1[C@@H](c2ccc(-c3cccc(F)c3)cc2)[C@H](CO)N1S(=O)(=O)c1cccc(F)c1	-3.5	2.7	-6.2
39	CN1C(=O)c2cc(NC(=O)C3CC3)ccc2OC[C@@H]2O[C@H](CC(=O)NCc3cccc(F)c3)CC[C@H]21	1.1	2.7	-1.6
40	COc1ccc(C#Cc2ccc3c(c2)[C@H]2[C@H](CCN2S(=O)(=O)c2ccc(OC)cc2)[C@H](CO)N3C)cc1	16.3	-5.3	21.6
41	CC(=O)N1[C@@H](CO)[C@@H]2c3ccccc3N(C(=O)c3ccccc3)C[C@@H]21	-0.3	-0.2	-0.1
42	COc1ccc2c3c([nH]c2c1)[C@H](CO)N(S(=O)(=O)c1cn(C)cn1)CC31CCN(CC2CCCCC2)CC1	3.0	-7.4	10.4
43	COc1ccc(C#Cc2ccc([C@H]3[C@@H](CO)N4C(=O)CN(C(=O)C5CCOCC5)C[C@@H]34)cc2)cc1	1.0	1.4	-0.4
44	CCNC(=O)C[C@@H]1CC[C@@H]2[C@@H](COc3ccc(NC(=O)Nc4ccccc4Cl)cc3C(=O)N2C)O1	6.4	4.4	1.9
45	CN(C)C(=O)c1cccc(-c2ccc3c(c2)[C@H]2[C@H](CCN2C(=O)C2CCC2)[C@@H](CO)N3)c1	?	nt	nt
46	C[C@@H]1CCCCO[C@H](CN(C)Cc2ccc(C(F)(F)F)cc2)[C@H](C)CN([C@H](C)CO)C(=O)c2cc(NC(=O)c3ccccc3)ccc2O1	1.6	-2.3	4.0
47	COc1ccc2c3c(n(C)c2c1)[C@H](CO)N(C)CC31CCN(S(=O)(=O)c2cccc(C)c2)CC1	?	nt	nt
48	CO[C@H]1CN(C)C(=O)c2cc(NS(=O)(=O)c3cn(C)cn3)ccc2OC[C@@H](C)NC[C@@H]1C	-4.7	-5.8	1.1

# Additional records follow.
entry	SMILES	DUX4 inh	DUX4 inh difference	DUX4 inh control
49	N#C[C@H]1[C@H](c2ccc(-c3cccc(F)c3)cc2)[C@H](CO)N1C(=O)c1cccnc1	1.1	-1.4	2.5
50	Cn1cnc(CCNC(=O)C[C@H]2CC[C@H]3[C@@H](COC[C@H](O)CN3C(=O)Nc3ccc(F)cc3)O2)c1	-4.9	-3.7	-1.3
51	O=C(c1ccncc1)N1CC[C@@H]2[C@H]1c1cc(Br)ccc1N[C@@H]2CO	?	nt	nt
52	O=C(NCC1CC1)[C@H]1[C@H](CO)[C@H]2Cn3c(ccc(C4=CCCC4)c3=O)[C@@H]1N2CCC(F)(F)F	-5.8	-9.7	3.9
53	O=S(=O)(c1ccccc1F)N1[C@@H]2CNC[C@H]1C2c1ccc(-c2cncnc2)cc1 (some centres not stated)	24.9	18.5	6.4
54	C[C@@H]1CCCCO[C@@H](CN(C)Cc2ccc3c(c2)OCO3)[C@H](C)CN([C@H](C)CO)C(=O)c2cc(N(C)C)ccc2O1	2.2	-1.8	4.0
55	COc1cccc(NC(=O)N(C)C[C@@H]2OCc3ccccc3-c3c(n(C)c4ccccc34)C(=O)N([C@H](C)CO)C[C@@H]2C)c1	?	nt	nt
56	COc1ccccc1NC(=O)N1CC(=O)N2[C@H](C1)[C@H](c1ccc(-c3cccc(C)c3)cc1)[C@@H]2CO	-3.4	-4.0	0.6
57	COc1ccc(C(=O)N2C[C@H]3[C@@H](c4ccccc42)[C@@H](CO)N3C(=O)c2ccc(F)cc2)cc1	1.5	-0.8	2.3
58	COCCN(C[C@@H]1[C@H](c2ccccc2)[C@@H](CO)N1C(=O)C1CCC1)C(C)=O	0.2	-3.6	3.8
59	COc1ccc2c3c(n(C)c2c1)[C@H](CO)N(S(C)(=O)=O)CC31CCN(C(=O)c2ccccn2)CC1	-0.4	-7.5	7.1
60	COc1ccccc1NC(=O)N[C@@H]1CC[C@H](CC(=O)N[C@@H](C)c2ccccc2)O[C@@H]1CO	0.5	10.4	-9.9
61	COc1ccccc1-c1ccc2c(c1)O[C@@H](CN(C)CC1CCOCC1)[C@H](C)CN([C@@H](C)CO)S2(=O)=O	2.3	1.6	0.7
62	CO[C@@H]1CC[C@@H]2CCN(C)C(=O)C[C@H](c3ccccc3)CN(C)C(=O)c3cc(C#N)ccc3OC[C@H]1O2	-2.4	-2.2	-0.2
63	CC(C)NC(=O)NCC[C@H]1CC[C@@H](NS(=O)(=O)c2ccc(Oc3ccccc3)cc2)[C@H](CO)O1	-2.5	-2.2	-0.3

# Following part.
entry	SMILES	DUX4 inh	DUX4 inh difference	DUX4 inh control
64	Cc1cccc(-c2ccc([C@@H]3[C@@H](CO)N4CCCCN(Cc5ccncc5)C[C@H]34)cc2)c1	-4.7	-7.1	2.4
65	CCCC(=O)N1C[C@@H]2[C@H](c3ccccc31)[C@H](CO)N2C(=O)Nc1ccc(F)cc1	0.5	1.8	-1.4
66	N#Cc1ccc(-c2ccc3c(c2)[C@@H]2[C@@H](CCN2C(=O)Cc2ccccc2)[C@H](CO)N3)cc1	-5.4	2.5	-7.9
67	C[C@H](CO)N1C[C@H](C)[C@H](CN(C)S(=O)(=O)c2ccc(Cl)cc2)Oc2ccc(NC(=O)Nc3cccc4ccccc34)cc2CC1=O	2.5	-2.2	4.7
68	COc1ccc(S(=O)(=O)N(C)C[C@H]2Oc3ccc(NC(=O)NC4CCCCC4)cc3CC(=O)N([C@H](C)CO)C[C@@H]2C)cc1	-2.3	-0.2	-2.1
69	COCC(=O)Nc1ccc2c(c1)C(=O)N(C)[C@@H]1CC[C@@H](CC(=O)NCCCN(C)C)O[C@@H]1CO2	-2.7	-2.3	-0.4
70	C[C@@H]1CN([C@@H](C)CO)C(=O)c2c(c3ccccc3n2C)-c2ccccc2CO[C@H]1CN(C)S(=O)(=O)c1ccc([N+](=O)[O-])cc1	?	nt	nt
71	CNC(=O)C[C@@H]1CC[C@H]2[C@@H](COC[C@@H](O)CN2Cc2ccc(Cl)c(Cl)c2)O1	2.3	6.8	-4.5
72	CCS(=O)(=O)N1CC2(C1)CN(S(=O)(=O)c1ccccc1)[C@@H](CO)c1c2c2ccc(OC)cc2n1C	3.4	-3.9	7.3
73	CCCNC(=O)C[C@@H]1CC[C@H]2[C@@H](COC[C@@H](O)CN2C(=O)c2ccccn2)O1	10.3	7.2	3.1
74	Cc1noc(C)c1S(=O)(=O)Nc1ccc2c(c1)C(=O)N([C@H](C)CO)C[C@H](C)[C@@H](CN(C)C(=O)CCC(F)(F)F)OCCCC[C@@H](C)O2	2.1	-1.5	3.6
75	CCCN1[C@H](C(=O)NC2CCC2)[C@@H](CO)[C@@H]2Cn3c(ccc(-c4ccccc4F)c3=O)[C@@H]21	2.4	0.4	2.0
76	COc1ccc(NC(=O)N2C[C@@H](O)COC[C@H]3O[C@@H](CC(=O)NCc4ccccc4OC)CC[C@@H]32)cc1	4.6	6.1	-1.4
77	Cc1ccc(S(=O)(=O)N[C@H]2CC[C@H](CCNC(=O)C3CCOCC3)O[C@@H]2CO)cc1	0.9	-2.1	2.9
78	CO[C@H]1CN(C)C(=O)c2cc(NS(=O)(=O)c3cccc(Cl)c3)ccc2OC[C@H](C)NC[C@H]1C	9.1	7.3	1.8
